eIF4H inh – human eIF4H binding inhibitors, primary screen, translation initiation inhibitor project, biochemical, uHTS, fluorescence polarization. eIF4H fluorescence polarization binding assay. inhibition, % at 35 µM. 290,000 compounds, 0.94% hits. AID 2012, 2009;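 active means 50% or more with normal probe brightness, or confirmed in later tests; inconclusive means above 50% with abnormal brightness, or retests that disagree; inactive means below 50% or failed in later tests; about a fifth of its hits are not listed in these tables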;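 further: calls also rest on retests at 20 µM and on dose response follow-up; 0% = protein and probe with vehicle and 100% = probe without protein; strong numbers were not always called active; many hits fall short of the cut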
Rce1 inhib – yeast Rce1p protease inhibitors, primary screen, biochemical, fluorescence, cell-free homogeneous; calls only; CAAX prenyl protease 2 (Saccharomyces cerevisiae (strain ATCC 204508 / S288c)), Q03530; yeast membranes, quenched prenylated peptide cleavage fluorescence; 290,000 compounds, 0.27% hits;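 active means fall in fluorescence gain of 50% or more versus controls, with final raw signal at or below 3038400; inconclusive means same 50% fall but final raw signal above 3038400; inactive means fall in fluorescence gain under 50%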;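 further: plate controls were neutral control wells for no effect and wells lacking membranes for full effect; tested at 10 µM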
Target sequence (Q03530 whole entry, looked up): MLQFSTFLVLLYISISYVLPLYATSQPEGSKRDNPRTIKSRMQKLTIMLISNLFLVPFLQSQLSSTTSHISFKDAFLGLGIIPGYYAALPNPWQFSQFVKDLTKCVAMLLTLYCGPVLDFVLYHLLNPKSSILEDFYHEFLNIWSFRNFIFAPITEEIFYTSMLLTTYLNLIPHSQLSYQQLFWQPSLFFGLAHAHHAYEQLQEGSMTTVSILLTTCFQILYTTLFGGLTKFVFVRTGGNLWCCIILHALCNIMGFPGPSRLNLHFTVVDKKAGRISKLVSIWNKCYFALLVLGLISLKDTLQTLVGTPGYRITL
UUG fidelity – modulators of yeast start codon fidelity, primary screen, whole organism, S. cerevisiae, single point, plate reader; 350,000 compounds, 0.13% hits; activity score, % at 18.7 µM; S. cerevisiae UUG-firefly luciferase reporter, luminescence/redox ratio;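 active means replicate mean at a twofold rise or more, about +100% in these data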;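 further: firefly luciferase made from a UUG start codon reports start codon fidelity; reporter light over untreated wells divided by growth signal over untreated wells; some hits fall short of that in this replicate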
PABP FP inh – PABP poly(A) RNA binding inhibitors, primary screen, biochemical, fluorescence polarization, uHTS | Polyadenylate-binding protein 1 (Homo sapiens), P11940 | inhibition, % at 35 µM | 290,000 compounds, 1% hits;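 active means 50% or more with normal probe brightness, or confirmed in later tests; inconclusive means above 50% with abnormal brightness, or retests that disagree; inactive means below 50% or failed in later tests; about a fifth of its hits are not listed in these tables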;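 further: calls also rest on retests at 20 µM and on dose response follow-up; controls were probe without protein and protein plus probe with vehicle; some compounds called inactive have numbers as strong as hits; many hits fall short of the cut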
Target sequence (P11940 whole entry, looked up): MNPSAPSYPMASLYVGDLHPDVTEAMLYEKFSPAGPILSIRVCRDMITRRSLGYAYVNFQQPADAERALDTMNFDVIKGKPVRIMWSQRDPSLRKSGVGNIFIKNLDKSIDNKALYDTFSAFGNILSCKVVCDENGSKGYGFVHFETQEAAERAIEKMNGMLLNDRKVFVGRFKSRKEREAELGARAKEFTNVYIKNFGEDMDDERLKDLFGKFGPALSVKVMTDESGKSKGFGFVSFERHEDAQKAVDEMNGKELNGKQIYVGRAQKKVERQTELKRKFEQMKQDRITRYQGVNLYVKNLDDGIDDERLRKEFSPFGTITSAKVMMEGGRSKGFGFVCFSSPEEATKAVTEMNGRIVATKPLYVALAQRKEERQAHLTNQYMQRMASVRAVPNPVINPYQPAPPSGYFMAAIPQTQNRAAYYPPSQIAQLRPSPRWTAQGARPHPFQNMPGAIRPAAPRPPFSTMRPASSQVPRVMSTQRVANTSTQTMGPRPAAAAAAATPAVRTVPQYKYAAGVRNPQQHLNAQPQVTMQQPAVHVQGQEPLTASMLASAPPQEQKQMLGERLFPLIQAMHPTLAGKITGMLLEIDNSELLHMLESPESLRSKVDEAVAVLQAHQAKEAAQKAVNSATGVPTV
Env fusion inh – inhibitors of HIV-1 Env-driven cell-cell fusion, primary screen, HeLa-JRFL effector, CEM21 target cells, luciferase; inhibition, % at 12.3 µM; 360,000 compounds, 1.1% hits;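 active means mean replicate inhibition score of at least 50 and every replicate individually at or above 50; inconclusive means only one of the two criteria met; inactive means mean below 50 and not all replicates reaching 50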;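 further: 0% = plate neutral controls and 100% = maraviroc near 300 nM; one replicate is shown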
CSC inhib – cancer stem cell viability inhibitors, primary screen, luminescence; inhibition, % at 7.5 µM; AID 2717, 2010; 300,000 compounds, 1.1% hits; cancer stem cell-like cells viability;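 active means mean at 75% or more and at least half the replicates too; inconclusive means mean and replicates disagree; tested in HMLE shEcad cells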;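 further: 0% = median of negative and 100% = median of positive control wells; the first replicate is given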
MT1-MMP act inh – blockers of MT1-MMP proenzyme processing, primary screen, HT1080 RFP-PRO-GFP cells, GFP/RFP fluorescence; 360,000 compounds, 0.061% hits; Matrix metalloproteinase-14 (Homo sapiens), P50281; AID 651647, 2012; GFP/RFP ratio fluorescence, overnight; percent of plate control window, DMSO zero; GFP/RFP ratio change, % at 20 µM;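 active means GFP/RFP ratio change of at least 30% with cell ATP level not reduced by more than half and red fluorescence within 50% of control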; further: strong numbers were not always called active
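Compound: 20 µM single dose, 1% DMSO / System: HT1080 RFP-PRO-GFP cells / Controls: DMSO and RFP-L50D-GFP cell wells / Read-out basis: GFP/RFP fluorescence ratio / Schedule: overnight compound exposure at 37 °C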
eIF4H inh retest – also measured in eIF4H inh; calls as there; inhibition, %; compound at 20 µM; confirmation average;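 mean of two retest wells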
PABP FP inh retest – second read-out of PABP FP inh, no call of its own (marks repeat the call); inhibition, %; compound at 20 µM; confirmation repeats;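 mean of two retest wells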
MT1-MMP act inh RFP – further read-out of MT1-MMP act inh, marked with its call; RFP signal change, %; measured here: RFP expression control read;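 0 = vehicle wells; hits needed this value within 50% of zero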
Numbers without * were called inactive; i = inactive; ? = inconclusive; · = not tested or not shown; & = joins results of further samples; [ ] = remark or other dose.

SMILES	eIF4H inh	Rce1 inhib	UUG fidelity	PABP FP inh	Env fusion inh	CSC inhib	MT1-MMP act inh	MT1-MMP act inh RFP	others
COc1ccc(-n2c(=O)c3c4c(sc3n(CC(=O)NCC3CCCO3)c2=O)CN(C(C)=O)CC4)cc1OC (stereo unspecified)	·	·	-3.4	·	0.1	·	-0.6	4.6
O=C(O)c1ccccc1C(=O)Nc1cc(-c2ccccc2)[nH]n1	-6.9	i	-6.3	0.1	3.6	2.1	1.4	-0.5
COc1ccc(CN2CCNC(=O)C2CC(=O)N(C)CC2CCOCC2)cc1C (stereo unspecified)	4.5	i	-3.1	2.1	-211.5	·	-0.7	3.5
CCN(CC)CCOC(=O)C1(C2CCCCC2)CCCCC1	0.1	i	-12.3	-11.4	·	-8.7	-5.0	-2.3
CCN(CCC(=O)Nc1cc(OC)cc(OC)c1)Cc1ccccc1	-2.6	i	-4.8	-9.7	-66.3	11.3	3.2	4.3
O=C(CCOc1cccc(Br)c1)Nc1ccc(F)c(S(=O)(=O)N2CCOCC2)c1	·	·	-7.6	·	34.4	·	4.6	-13.7
Cn1c(COc2ccc3ccccc3c2)nnc1SCC(=O)O	-4.4	i	-23.6	13.4	-25.5	6.7	6.9	10.2
OC(COc1cccc2ccccc12)CN1CCOCC1 (stereo unspecified)	·	·	-8.9	·	25.1	·	-0.7	1.2
CCn1cc([N+](=O)[O-])c(C(=O)Nc2ccc(Cn3nc(C)cc3C)cc2)n1	2.5	i	·	-6.9	·	-3.8	-5.5	0.2
CN(C)C(=O)COc1ccc2c3c(c(=O)oc2c1)CCCC3	2.6	i	-17.7	-6.7	-13.8	-5.1	0.4	1.6
Cn1c(SCC(=O)c2ccc(O)cc2O)nnc1-c1ccccc1	-4.2	i	·	12.9	7.9	0.4	-1.7	0.0
Cc1c(CC(=O)O)c(=O)oc2cc3oc4c(c3cc12)CCCC4	-6.1	i	·	-2.6	2.9	-18.6	-2.8	1.2
C=CCn1c(SCc2cccc(F)c2)nc2cc(C(=O)N3CCC(C(N)=O)CC3)ccc2c1=O	1.5	i	5.2	-5.9	-1.3	2.7	8.4	-6.0
N#Cc1nc(Cc2cccc3ccccc23)oc1NCCN1CCOCC1	-6.6	i	-2.8	-7.1	-45.6	-8.2	-1.6	-3.7
O=C1/C(=C\c2cccnc2)SC(=S)N1C1CCS(=O)(=O)C1 (stereo unspecified)	0.8	i	-9.9	0.6	·	36.6	0.1	-9.1
CC(C)(C)OC(=O)NNC(=S)NC1CCCCC1	-12.0	i	-19.7	9.1	-2.0	-13.1	·	·
O=C(NNc1ncnc2sccc12)c1ccc(Cl)cc1	6.6	i	-6.7	-2.6	-1.5	2.8	4.9	-18.2
CCOc1ccc(S(=O)(=O)N2CCCCC2)cc1NC(=O)CN1C(=O)NC(CC)(c2ccccc2)C1=O (stereo unspecified)	1.0	i	5.1	4.4	15.1	-0.3	-0.1	-5.2
CN(C)Cc1cc(C(C)(C)C)cc(C(C)(C)C)c1O	-5.0	i	·	-6.3	17.9	-7.7	1.8	5.0
O=C(CNC(=O)c1cccc(-n2cccc2)c1)Nc1ccccc1Br	·	·	-1.5	·	69.8*	·	0.0	3.6
C=CCn1c(SCC(=O)/C(C#N)=C(\C)N)nc2sc(C)c(C)c2c1=O	8.2	i	-3.3	2.1	·	6.6	-2.7	-1.9
Cc1occc1-c1n[nH]c(=S)n1CC(C)C	-3.7	i	-15.5	-9.4	-68.4	9.0	-1.7	1.2
COc1ccc(CC(=O)O/N=C(\N)c2ccc(Br)cc2)cc1OC	-11.8	i	-12.0	-1.3	3.6	-2.5	-5.2	-24.6
NC(=O)C1=C[C@H](c2ccc(C(F)(F)F)cc2)C[C@H](OCc2ccc(CO)cc2)O1	?	i	42.9&-8.1	5.6*	-4.2[16.7 µM]	-9.8	2.7	2.4	PABP FP inh retest=103.6*
COc1ccc(NC(=O)CCC(=O)Nc2nnc(C(F)(F)F)s2)c(OC)c1	1.6	i	-7.1	-8.1	5.4	-6.4	9.5	6.8
CCCC(=O)Nc1nnc(SCC(=O)N2C(C)CCCC2C)s1 (stereo unspecified)	4.4	i	-12.3	7.7	9.1	-10.7	3.3	3.7
Cc1ccc(-c2nc3sc4c(c3c(=O)n2N)CCCC4)cc1	-10.0	i	-25.2	-12.9	-167.3	6.6	-4.8	-4.5
COc1ccc(NC(=O)Cn2c(NCC(C)O)nc3ccccc32)cc1Cl (stereo unspecified)	4.0	i	·	-8.9	11.9	5.5	-3.8	0.6
Cc1ccc(C(=O)Nc2ccc3c(c2)OCO3)cc1NC(=O)c1ccco1	2.6	i	-3.5	16.0	-8.3	·	4.3	13.2
CC(CNC(=O)Cn1ccc(N)nc1=O)c1ccccc1 (stereo unspecified)	·	·	-6.6	·	-39.7	-9.2	3.9	3.1
CCN(CC1CCCO1)C(=O)c1cc(COc2ccc(OC)cc2Cl)on1 (stereo unspecified)	-4.0	i	-2.8	-8.5	-8.3	-3.9	-0.9	0.3
CS(=O)(=O)N1Cc2ccccc2CC1C(=O)OCC(=O)NCc1ccccc1 (stereo unspecified)	·	·	-5.4	·	9.4	-4.2	3.6	-0.8
Cc1ccc2nc(SCn3nnc4ccccc4c3=O)[nH]c2c1	-6.8	i	-21.2	22.4	-42.5	-6.2	6.7	-2.4
CCCCNC(C(=O)Nc1cccc(S(=O)(=O)N2CCOCC2)c1)c1ccccc1 (stereo unspecified)	-7.2	i	·	-5.1	-2.7	-1.9	-2.3	-5.8
C=CCC(C#Cc1ccc(C)cc1)N(CC)CC (stereo unspecified)	-0.8	i	-11.6	7.7	·	-4.8	0.0	5.4
O=C(Cn1nnc(-c2cccs2)n1)NCc1ccco1	2.3	i	·	9.9	2.5	-7.1	4.7	4.8
Cc1cc(C)cc(C(=O)NC(CC(N)=O)c2ccc(NCCN3CCCC3)c([N+](=O)[O-])c2)c1 (stereo unspecified)	-16.7	i	-15.0	-13.4	·	6.3	5.5	5.2
O=C(CCS(=O)(=O)c1ccc(Cl)cc1)NCCC1=CCCCC1	-12.1	i	-4.9	-5.5	-17.6	-6.3	-2.7	1.4
CC(=O)Nc1ccccc1OCC(=O)NCCc1ccc(Cl)cc1Cl	-5.4	i	·	0.7	27.9	·	0.3	-3.5
O=S(=O)(NCC(c1cccnc1)N1CCN(c2ccc(F)cc2)CC1)c1ccc(F)cc1 (stereo unspecified)	-7.8	i	-0.9	-2.9	-98.5	8.7	-0.7	-0.5

Ordered by heavy-atom count (descending): 6 of the compounds above
SMILES	eIF4H inh	Rce1 inhib	UUG fidelity	PABP FP inh	Env fusion inh	CSC inhib	MT1-MMP act inh	MT1-MMP act inh RFP	others
O=S(=O)(NCC(c1cccnc1)N1CCN(c2ccc(F)cc2)CC1)c1ccc(F)cc1 (stereo unspecified)	-7.8	i	-0.9	-2.9	-98.5	8.7	-0.7	-0.5
COc1ccc(NC(=O)CCC(=O)Nc2nnc(C(F)(F)F)s2)c(OC)c1	1.6	i	-7.1	-8.1	5.4	-6.4	9.5	6.8
O=C(CNC(=O)c1cccc(-n2cccc2)c1)Nc1ccccc1Br	·	·	-1.5	·	69.8*	·	0.0	3.6
Cc1c(CC(=O)O)c(=O)oc2cc3oc4c(c3cc12)CCCC4	-6.1	i	·	-2.6	2.9	-18.6	-2.8	1.2
OC(COc1cccc2ccccc12)CN1CCOCC1 (stereo unspecified)	·	·	-8.9	·	25.1	·	-0.7	1.2
O=C(NNc1ncnc2sccc12)c1ccc(Cl)cc1	6.6	i	-6.7	-2.6	-1.5	2.8	4.9	-18.2

Other records follow:
SMILES	eIF4H inh	Rce1 inhib	UUG fidelity	PABP FP inh	Env fusion inh	CSC inhib	MT1-MMP act inh	MT1-MMP act inh RFP	others
O=C(Cn1nc(Cl)nc1Cl)Nc1ccccc1	-5.8	i	-11.3	-8.1	0.3	-17.4	6.9	3.1
CN1C(=O)/C(=C\c2cccc(OCc3ccccc3)c2)SC1=S	49.1	i	-6.5	12.1	10.6	·	0.2	3.0
Cc1ccccc1NC(=O)c1ccc(-n2cncn2)nc1	1.0	i	-15.2	-9.6	-4.8	2.2	-4.8	-1.0
O=C1/C(=C\c2ccsc2)N2CCC1CC2	0.9	i	-22.0	5.6	18.4	-0.9	6.1	-2.1
O=C(CCc1nnc(-c2ccccc2)o1)c1ccc(Cl)cc1	-7.4	i	-8.5	-3.5	4.4	5.8	2.3	4.2
c1ccc(Cn2c(Sc3nnnn3-c3ccccc3)nnc2-c2ccccc2)cc1	-6.7	i	-11.0	-10.7	16.5	6.7	-0.7	-4.5
COc1ccc(CNC(=S)Nc2ccc3nc(N4CCN(C)CC4)cc(C)c3c2)cc1	1.5	i	-33.6	22.3	-1.8	42.6	1.4	-1.3
O=C(NNC(=O)c1ccc[nH]1)Nc1cccc(C(F)(F)F)c1	-1.6	i	·	6.6	-10.6	16.9	-0.8	3.1
O=C(NCc1nc2ccccc2[nH]1)C1=C[C@@H](c2ccccc2)C[C@@H](OCCCCO)O1	-8.0	i	-20.3	-0.8	-11.0	-21.9	-0.6	1.3
CCOC(=O)N(C)C[C@@H]1OCc2ccccc2-c2c(n(C)c3ccccc23)C(=O)N([C@H](C)CO)C[C@H]1C	·	·	3.1	·	-32.5	·	-2.3	0.4
COCCn1c(C)cc(C(=O)CSc2nc(C)nc3sc4c(c23)CCC4)c1C	·	i	-14.0	·	1.2	·	5.7	-10.0
O=C(NCCCN1CCOCC1)C(=O)NCC1OCCN1S(=O)(=O)c1ccc(F)cc1 (stereo unspecified)	-0.7	i	-23.3	-2.5	·	-0.6	3.6	6.1
CC(C)N1CCN(c2ccncc2S(=O)(=O)N2CCOCC2)CC1	-2.1	i	-11.8	-6.1	·	-9.4	1.9	7.3
Cc1c(C(=O)N2CCN(c3ncccn3)CC2)sc2nc3n(c(=O)c12)CCCC3	4.0	i	-19.2	1.2	1.1	-26.3	2.9	4.2
Cc1c(C)n(C)c2ccc(C(=O)NCCCN3CCN(c4ccccc4F)CC3)cc12	-14.2	i	-18.9	2.7	8.4	-2.1	-5.0	-3.7
COc1ccc(NC(=O)CCSc2cc(C)c3ccccc3n2)cc1	1.2	i	-8.6	2.8	·	-10.3	-8.7	-4.8
Cc1nc(S/C(=C/c2ccc(-c3ccc(C(=O)O)cc3)o2)C(=O)O)n[nH]1	74.7	i	-2.8	43.6*	-0.5	-3.5	1.2	1.7	eIF4H inh retest=34.0;PABP FP inh retest=62.7*
Cc1cc(Cl)ccc1OCCCC(=O)N1CCN(C)CC1	14.8	·	-14.1	-0.3	-18.9	11.6	-3.6	1.3
COC(=O)CCSCC(=O)Nc1ccc(S(=O)(=O)N2CCOCC2)cc1OC	-10.5	i	0.7	-8.5	-5.5	-7.7	-0.8	0.5
COc1ccc(C)cc1S(=O)(=O)N1CCCC(C(=O)NCC2CCCO2)C1 (stereo unspecified)	4.9	i	-22.1	2.3	-17.2	11.0	3.5	-0.5

Source: PubChem BioAssay (several laboratories)
